Screening results as filed in PubChem.
StopGo reporter = lowers the luciferase signal of an FMDV 2A StopGo reporter. 1.2% of 410,000 active. AID 1159524. Potency, µM (titrated, usually from 57.9 µM), for inactives: at the top dose signal change, negative = less light. human cells with a luciferase reporter of 2A StopGo recoding; control for the full effect not named in the record; active = well fitted falling curve with a large enough effect; inconclusive = small, poorly fitted or top-dose-only effect; inactive = no such curve, though single readings can be large or run the other way; tested in HEK293T cells; note: % is set by controls: 0 for no effect and ±100 for the full control effect; nearly all actives have a fitted effect of over 45% in size; luciferase light after 4 h
SARS PLpro yeast = blocks SARS-CoV papain-like protease in a yeast assay. S. cerevisiae expressing SARS-CoV PLpro, growth rescue; control for the full effect not named in the record. Potency, µM (top dose mostly 32.9 µM), without a hit: top-dose activity, positive = growth rescue. 0.19% of 330,000 active; note: 0% is about no effect; nearly all actives have a fitted effect of over 55% in size; growth read by luminescence after 48 h
Cruzain inh noDet = blocks cruzain activity in detergent-free assay; Potency, µM, without a hit: max response, negative = inhibition, most hits filed as inhibitors; AID 1476; 2.3% of 200,000 active; purified cruzain, Z-FR-AMC fluorescence, no detergent; active = well fitted curve in the direction sought with a large enough effect; inconclusive = small, poorly fitted or top-dose-only effect, or another doubt; inactive = no such curve, though single readings can be large; an effect the other way counts as inactive or inconclusive;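 note: plate controls were enzyme without inhibitor for no effect and buffer without enzyme for full effect; nearly all actives have a fitted effect of over 40% in size; top concentration of the series not given in the record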
Target sequence (P25779 123-467 limits assumed): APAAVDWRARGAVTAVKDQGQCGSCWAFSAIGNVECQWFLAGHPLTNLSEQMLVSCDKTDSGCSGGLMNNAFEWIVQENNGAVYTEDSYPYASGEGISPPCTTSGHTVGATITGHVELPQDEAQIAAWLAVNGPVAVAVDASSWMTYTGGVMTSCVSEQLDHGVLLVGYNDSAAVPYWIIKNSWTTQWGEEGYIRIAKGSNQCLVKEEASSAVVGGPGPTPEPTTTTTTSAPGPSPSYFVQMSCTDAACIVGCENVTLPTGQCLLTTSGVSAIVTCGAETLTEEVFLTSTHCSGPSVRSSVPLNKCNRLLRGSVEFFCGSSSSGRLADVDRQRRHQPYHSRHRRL
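Purified cruzain at 1.5 nM, pre-incubated 15 min with compound at room temperature in 100 mM sodium acetate pH 5.5, 5 mM DTT, 0.00005% Triton X-100. Reaction started with 2 uM Z-FR-AMC; AMC fluorescence increase over 60 s gives rate.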
Cruzain inh Det = cruzain (T. cruzi) inhibition with detergent | Potency, µM, without a hit: max response, negative = inhibition, actives largely listed as inhibitors | AID 1478 | P25779 | 0.43% of 200,000 active | purified cruzain, Z-FR-AMC fluorescence, 0.01% Triton; active = well fitted curve in the direction sought with a large enough effect; inconclusive = small, poorly fitted or top-dose-only effect, or another doubt; inactive = no such curve, though single readings can be large; an effect the other way counts as inactive or inconclusive;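 note: plate controls were neutral wells for no effect and buffer without enzyme for full effect; nearly all actives have a fitted effect of over 40% in size; top concentration of the series not given in the record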
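15 min RT preincubation of 1.5 nM cruzain with compound, then 2 uM Z-FR-AMC added; kinetic AMC fluorescence, 60 s delta. Triton X-100 0.01%, pH 5.5.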
MARV entry inh = blocks Marburg virus binding to or entry into cells | Marburg virus pseudotyped entry inhibition, cell reporter; control for the full effect not named in the record; about a third of the inactives were read at about 46 µM | Potency, µM (doses to about 37.8 µM), for inactives: at the highest dose activity change, negative = inhibition, hits mostly inhibitors | 1.8% of 300,000 active | AID 540276; active = well fitted inhibition curve with a large enough effect; inconclusive = small, poorly fitted or top-dose-only effect, or effect the other way; inactive = flat fitted curve, though single readings scatter; tested in HEK293 cells; about a fifth of its hits are not listed in these tables; note: % is set by controls: 0 for no effect and ±100 for the full control effect; luciferase read-out
LASV entry inh = blocks Lassa virus binding to or entry into cells. Lassa virus pseudotype entry inhibition, cell reporter; control for the full effect not named in the record. Potency, µM (top dose mostly 37.9 µM), for the others: at the top dose activity change, negative = inhibition, actives largely listed as inhibitors. 1.2% of 300,000 active; active means well fitted inhibition curve with a large enough effect; inconclusive means small, poorly fitted or top-dose-only effect, or effect the other way; inactive means flat fitted curve, though single readings scatter; tested in HEK293 cells; note: % is set by controls: 0 for no effect and ±100 for the full control effect; nearly all actives have a fitted effect of over 50% in size; luciferase read-out
NS1 inh = blocks influenza NS1 protein function; S. cerevisiae slowed by influenza A NS1, growth recovery by OD600; 0.4% of 270,000 active; Potency, µM (top dose mostly 46.1 µM), without a hit: at the top dose activity, positive = more growth; note: actives are rising curves; nearly all actives have a fitted effect of over 50% in size
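Compounds were scored for reversing the slow growth caused by influenza A NS1 in S. cerevisiae, measured by optical density at 600 nm. Assay medium contained 2% galactose at pH 6.0; NS1-free yeast of the same strain were the positive control.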
RE007 growth inh = less growth of the S. pombe RE007 Vpr strain; S. pombe RE007 Vpr strain, BacTiter-Glo ATP luminescence, 24 h; control for the full effect not named in the record; Potency, µM (titrated, usually from 92.2 µM), for inactives: top-dose activity change, negative = less growth; 0.21% of 360,000 active; AID 651644; active = well fitted falling curve with a large enough effect; inconclusive = small, poorly fitted or top-dose-only effect; inactive = no such curve, though single readings can be large or run the other way;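 note: % is set by controls: 0 for no effect and ±100 for the full control effect; nearly all actives have a fitted effect of over 50% in size; the assay follows cell death caused by Vpr and the record does not say whether a fall means rescue or toxicity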
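Fission yeast RE007 carrying one integrated HIV-1 vpr copy, seeded at OD 0.01 in PMG+AL medium with 23 nL pinned compound. Grown 24 h at 30 degrees; viability read by BacTiter-Glo luminescence after 5 min.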
Active calls of the source: *; ? = inconclusive; / = not tested or not shown; & = joins results of further samples; [ ] = another dose, or the depositor's remark. Unless noted, calls come from the whole dose curve; as a rule, active means well fitted rising curve with a large enough effect; inconclusive means small, poorly fitted or top-dose-only effect; inactive means no such curve, though single readings can be large or run the other way. Potency is the fitted concentration of half-maximal effect.

SMILES	StopGo reporter	SARS PLpro yeast	Cruzain inh noDet	Cruzain inh Det	MARV entry inh	LASV entry inh	NS1 inh	RE007 growth inh
O=C(CN1C(=O)CCSc2ccc(S(=O)(=O)N3CCOCC3)cc21)Nc1ccccc1Cl	-5%	-7%	/	/	-18%[46.1 µM]	0%[46.1 µM]	6%	7%
O=C(Nc1ccc2nn(-c3ccc(Cl)cc3)nc2c1)c1cc2ccccc2o1	5%	/	0%	1.3%	/	9%[46.1 µM]	/	/
COc1cccc(C(=O)NCC(c2ccc(N(C)C)cc2)N2CCCC2)c1OC (centres undefined)	-13%	/	17%	-0.6%	/	-19%[46.1 µM]	/	/
COc1cc(/C=N/NC(=O)COc2ccc(-n3cnnn3)cc2)ccc1OCC(N)=O	0%	0%	/	/	-2%[46.1 µM]	21%[46.1 µM]	-1%	-7%
CCc1cc2c(=O)n(-c3ccccc3)c(SCC(N)=O)nc2s1	0%	1%	/	/	/	/	5%	2%
COc1ccc(C(=O)COC(=O)c2cccnc2SC)cc1	47%[activator]	-1%	/	/	-18%[46.1 µM]	25%	1%	-1%
CC1(C)Oc2ccc(C(=O)N/N=C/c3ccc(O)cc3)cc2NC1=O	-16%	12%	/	/	-5%[46.1 µM]	0%	1%	12%
CCOC(=O)c1c(C)oc2nc(C)nc(NCc3ccc(Cl)cc3)c12	-23%	/	-7%	-1.7%	/	10%[46.1 µM]	/	/
Cc1cc(F)ccc1NC(=O)C1CCCO1 (centres undefined)	-18%	1%	/	/	-16%[46.1 µM]	10%[46.1 µM]	2%	-5%
N#Cc1cc(NC2CCCC2)c([N+](=O)[O-])cc1C#N	-36%	13%	-8%	-0.1%	1%	4%	23%	-21%
CC1CCCCC1NC(=O)COC(=O)c1c2c(nc3ccccc13)/C(=C\c1ccco1)CC2 (centres undefined)	14%	/	/	/	?	6%[46.1 µM]	/	-18%
CCOC(=O)N1CCN(Cc2nc3c(c(=O)n(C)c(=O)n3C)n2Cc2cccc(C)c2)CC1	-10%	6%	?	3.2%	-8%	-2%	-16%	8%
Cc1cccc(NS(=O)(=O)c2cccc(C(=O)NNC(=O)c3ccccc3O)c2)c1	17%	4%	/	/	?	?	/	3%
CCOC(=O)CCCc1ccc(/C(C)=N/NC(=S)NC)cc1	-21%	6%	/	/	6%	/	-12%	-9%
CC(Oc1ccc2c3c(c(=O)oc2c1)CCCC3)C(=O)NCCCn1ccnc1 (centres undefined)	-4%	24%	/	/	/	/	1%	-2%
CCOC(=O)C(CC)(CC)/C(C)=N/NC(=O)CC#N	-9%	1%	2%	-0.6%	2%	?	2%	15%
CCOC(=O)c1[nH]c(C)c(CCC(=O)Nc2c(C)cc(C)cc2C)c1C	1%	/	-4%	2.5%	/	15%[46.1 µM]	/	/
CC(C)C(=O)Nc1csc(C(F)(F)F)c1-c1ccccc1	-5%	0%	/	/	/	/	2%	-16%
O=C(Nc1ccccc1Cl)NC1(C(=O)NCC2CCCO2)CCCCC1 (centres undefined)	17%	0%	/	/	-3%[46.1 µM]	-5%[46.1 µM]	9%	7%
Cc1cc(OC(=O)c2ccc(Cl)cc2Cl)nc(C)n1	7%	2%	5%	2.6%	0%	12%	-4%	6%[3.69 µM]
COc1cccc(CC(=O)Nc2cccc3ccccc23)c1	-4%	2%	/	/	-7%	0%	-9%	1%
CCN(CC)CCNC(=O)c1c(O)c2cc(OC)c(OC)cc2[nH]c1=O	-8%	-4%	-20%	-3.3%	-13%	-2%	-2%	-9%
CCOc1ccc(-n2nc(C(=O)NCCOC)c3ccccc3c2=O)cc1	-11%	2%	1%	0.1%	2%	-3%	-26%	2%
O=C(c1cc2ccccc2o1)N1CC=C(c2ccccc2)CC1	12%	-1%	/	/	-8%[46.1 µM]	-2%	-31%	-21%
C/C=C(\C)C(=O)NCCN1C2=NC[C@@H](Cc3ccccc3)N2C[C@H]1Cc1ccc(O)cc1	6%	-1%	/	/	/	/	-1%	-9%
CC(C)c1ccccc1NC(=O)C1CCCN(C(=O)c2ccc(Cl)cc2)C1 (centres undefined)	-15%	0%	/	/	-19%	?	/	-11%
O=C(CN1CCCC1)Nc1ccc(Oc2ccc(NC(=O)CN3CCCC3)cc2)cc1	-14%	-7%	7%	4.9%	2.1µM*	13µM*	-3%	-25%
Cc1nc2ccc(Br)cc2c2c1CC(CBr)O2 (centres undefined)	-8%	2%	/	/	?	-6%[46.1 µM]	-6%	-23%
COc1cc(NC(=O)C2CCN(S(=O)(=O)c3ccc(N4CCCC4=O)cc3)CC2)cc(OC)c1	-22%	3%	/	/	/	/	4%	2%
O=C(c1cc(F)c(F)cc1Cl)N1CCN(CCc2ccccc2)CC1	-26%	-3%	/	/	-1%[46.1 µM]	-14%[46.1 µM]	7%	-12%
CN(/N=C/c1cc(Cl)ccc1O)C1=NS(=O)(=O)c2ccccc21	?	2%	/	/	/	/	1%	5%
CC(=O)N(Cc1ccc(F)cc1)C1=C(NCc2ccccc2)C(=O)c2ccccc2C1=O	35µM*	-20%	-18%	-3.0%	?	6.3µM*	8%	7.1µM*
S=C(NCCc1ccc(Cl)cc1)NCc1ccco1	21%	0%	/	/	-14%[46.1 µM]	13%	/	-6%
COc1ccc(CCNc2ncnc3c2c(-c2ccccc2)cn3-c2cccc(Cl)c2)cc1OC	25µM*	/	?	0.2%	/	?	/	/
COc1ccc(-c2cc3n(n2)CCc2nc4ccccc4n2-3)cc1	13%	-6%	?	0.3%	-24%	19%	-53%	3%
Cc1ccc(C)c(N2CCN(C(=O)c3csc4ccccc34)CC2)c1	-21%	-57%	8%	-7.2%	-15%	?	-27%	-28%
Cc1ccc(NC2=NC(c3ccc(F)cc3)n3c(nc(C)cc3=O)N2)cc1 (centres undefined)	6%	0%	/	/	-5%[46.1 µM]	-17%	-7%	6%
O=C(CSc1ncnc2c1cnn2-c1ccccc1)Nc1ccc2c(c1)OCO2	-10%	-2%	-7%	2.0%	/	-20%	-43%	-10%
C/C(CC(=O)Nc1cccc2c1CCCC2)=N\NC(=O)c1cccc2ccccc12	-24%	-11%	-1%	-2.5%	?	-9%	15%	-8%
O=C1c2ccccc2C(=O)N1Cc1cc(-c2ccccc2Cl)no1	/	4%	-8%	-0.8%	?	2%	-56%	5%
Cc1ccc(-c2onc(C)c2C)cc1S(=O)(=O)N1CCCCC1	-26%	/	4%	-2.5%	/	-26%[46.1 µM]	/	/
ClCCN(CCCl)c1ccc(C=Cc2ccncn2)cc1	0%	/	/	/	?	0%[46.1 µM]	/	?
Cc1cc(Br)ccc1NC(=O)Cn1cnc2sc(C)c(S(=O)(=O)N3CCN(C)CC3)c2c1=O	-7%	/	-3%	-0.7%	-23%[46.1 µM]	7%[46.1 µM]	/	/
CCN(CC)S(=O)(=O)c1c(OC)cc(C)c(Cl)c1C	-15%	-1%	/	/	?	12%	-6%	-18%
COc1ccc(NC(=O)c2csc3c2CCCC3)cc1	39%[activator]	4%	-6%	-3.4%	-21%	?	-6%	-22%
O=C(N1CCCCC1)N1CCN(S(=O)(=O)c2ccc(Cl)cc2)CC1	-27%	0%	/	/	-7%[14.2 µM]	-18%	-1%	0%
Cc1cccc(-n2c(C)nc3ccccc3c2=O)n1	-1%	13%	-1%	-0.2%	25%	11%	-7%	-2%
Cc1ccc(NC(=O)C/C(N)=N/OC(=O)Nc2ccc(C)c(Cl)c2)cc1	0%	5%	/	/	9%[46.1 µM]	2%	/	-2%
CCOc1ccc(NC(=S)NNc2ccnc3cc(Cl)ccc23)cc1	?	-1%	/	/	?	-1%	/	8%
COc1cccc(-n2cc(CNCc3c(C(=O)N(C)C)nc4ccc(Cl)cn34)cn2)c1	?	1%	/	/	/	/	-1%	-8%

Structures shown so far that have two or more sulfur atoms, in the order listed:
SMILES	StopGo reporter	SARS PLpro yeast	Cruzain inh noDet	Cruzain inh Det	MARV entry inh	LASV entry inh	NS1 inh	RE007 growth inh
O=C(CN1C(=O)CCSc2ccc(S(=O)(=O)N3CCOCC3)cc21)Nc1ccccc1Cl	-5%	-7%	/	/	-18%[46.1 µM]	0%[46.1 µM]	6%	7%
CCc1cc2c(=O)n(-c3ccccc3)c(SCC(N)=O)nc2s1	0%	1%	/	/	/	/	5%	2%
Cc1cc(Br)ccc1NC(=O)Cn1cnc2sc(C)c(S(=O)(=O)N3CCN(C)CC3)c2c1=O	-7%	/	-3%	-0.7%	-23%[46.1 µM]	7%[46.1 µM]	/	/

Additional structures:
SMILES	StopGo reporter	SARS PLpro yeast	Cruzain inh noDet	Cruzain inh Det	MARV entry inh	LASV entry inh	NS1 inh	RE007 growth inh
C[C@@H]1C[C@@H]2OC(=O)[C@]3(C)[C@H]2[C@@H](OC3(C)O)[C@]2(C)C(=O)C=C[C@H]12 (some centres undefined)	-28%	-1%	/	/	/	/	2%	4%
COc1cc(C)c(CN2CCSCC2)cc1C	-13%	1%	/	/	/	/	-8%	4%
COc1cccc(CNC(=O)CCn2c(=O)c3cccn3c3cccnc32)c1	-14%&-3%	-1%	-5%	-3.0%	/	10%[46.1 µM]	?	4%
CCCCCCCCCCn1ccc(=N)cc1	16µM*	-4%	/	/	?	1.8µM*	-106%	?
O=C(Cn1cnc2c(cnn2-c2ccccc2)c1=O)Nc1cc(S(=O)(=O)N2CCOCC2)ccc1Cl	?	3%	-1%	-5.9%	20%	-3%	12%	0%
COc1ccccc1-c1nn(-c2ccccc2)cc1C(=O)N1CCN(C(=O)c2ccco2)CC1	3%	1%	/	/	11%	?	/	-7%
COc1ccc(-c2nc3c(c(SC)n2)Cc2c(CO)cnc(C)c2O3)cc1	-4%	/	8%	0.2%	/	11%[46.1 µM]	/	/
Cc1c(CN2CCC(n3nccc3NC(=O)C3CC3)CC2)[nH]c2ccccc12	-19%	-5%	/	/	-9%[46.1 µM]	4%[46.1 µM]	0%	11%
O=C1CCCN1CCC1CCN(C(=O)Nc2ccccc2)CC1	-3%	?	-6%	2.0%	19%	?	-26%	-8%
